Source: PubChem BioAssay
VDR inhibitor – blocks the human vitamin D receptor; Potency, µM, for inactives: max response, negative = inhibition, usual class: inhibitors; VDR-SRC2-3 peptide fluorescence polarization, 2 h; AID 504847; P11473; actives 0.93% (n = 400,000); active = well fitted inhibition curve with a large enough effect; inconclusive = small, poorly fitted or top-dose-only effect, or another doubt; inactive = no such curve, though single readings can be large or run the other way; note: series mostly up to about 120 µM
Target sequence (P11473 whole entry, looked up): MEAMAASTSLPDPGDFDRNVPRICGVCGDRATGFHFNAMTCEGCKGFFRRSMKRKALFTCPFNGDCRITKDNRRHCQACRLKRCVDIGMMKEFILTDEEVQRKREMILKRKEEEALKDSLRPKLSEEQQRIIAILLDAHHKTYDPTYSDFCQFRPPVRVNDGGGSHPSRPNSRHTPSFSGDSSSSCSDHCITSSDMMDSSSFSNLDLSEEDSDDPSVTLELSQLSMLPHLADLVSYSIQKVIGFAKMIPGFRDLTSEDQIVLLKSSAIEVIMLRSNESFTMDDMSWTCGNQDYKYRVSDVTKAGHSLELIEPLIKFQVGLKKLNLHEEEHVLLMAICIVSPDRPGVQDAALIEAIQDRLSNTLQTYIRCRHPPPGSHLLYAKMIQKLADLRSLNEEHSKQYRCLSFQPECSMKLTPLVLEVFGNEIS
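Inhibition of the VDR/SRC2-3 peptide interaction is quantified by fluorescence polarization. Compounds (23 nl, pintool) incubate with the reagents for 2 hours at ambient room temperature.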
Numbers without * were called inactive; ? = inconclusive; & = joins results of further samples; [ ] = another dose, or the depositor's remark. % is set by controls: 0 for no effect and ±100 for the full control effect; potency is the fitted concentration of half-maximal effect. Not all compounds are listed (hit frequency here may not be typical).

canonical_smiles,VDR inhibitor
CCN(CC)c1ccc(NC(=O)c2ccc3c(c2)c(C)c(C)n3C)cc1,-9%
O=C(CCC(=O)c1ccc(F)cc1)Nc1ccc(Cl)cc1,14%
COC(=O)c1cn(C(=O)c2cc(OC)c(OC)c(OC)c2)c2ccccc12,-5%
COc1ccccc1NS(=O)(=O)c1ccc(Cl)c(NC(=O)C(C)N2C(=O)c3ccccc3C2=O)c1 (stereo not drawn),-2%
COc1ccc(C2c3[nH]c4ccccc4c3C[C@H]3C(=O)N(c4ccccc4C(=O)N4CCC[C@H]4C(=O)O)C(=O)N23)cc1 (stereo partly drawn),-8%
COc1ccc(Br)c2oc(SC)cc(=O)c12,-26%&-16%
Cc1sc2c(c1C)c(=O)n(-c1ccc(Cl)cc1)c(=O)n2CC(=O)c1ccccc1,-10%
Nc1cccnc1-n1nc(C(F)(F)F)cc1C(F)(F)F,-5%
CN(C(=O)COC(=O)Cc1c(Cl)cccc1Cl)C1CCS(=O)(=O)C1 (stereo not drawn),-7%
CCOC(=O)C1CCN(C(=O)CN(c2ccc(Oc3ccccc3)cc2)S(C)(=O)=O)CC1,9%
O=C(CSc1ccc(-c2ccccn2)nn1)N1CCCCC1,-19%
CC1CCN(S(=O)(=O)c2cc3c4c(c2)CC(=O)N4CCC3)CC1,6%
CN(CC(=O)Nc1cccc(F)c1)C(=O)c1ccccc1Cc1ccccc1,16%
CCOc1ncccc1C(=O)OCc1c(F)cccc1Cl,-4%
CCOC(=O)c1oc2ccccc2c1NC(=O)c1ccco1,-4%
COc1ccc(Oc2cn[nH]c2-c2ccc(OC)cc2O)cc1,19%
O=C(Nc1ccc(O)cc1)N1CCOCC1,4%
CCCCSc1nc2sc3c(c2c(=O)n1-c1ccccc1)CCN(C)C3,3%
O=C(c1cc(C(F)(F)F)cc(C(F)(F)F)c1)N1CCC2(CCCN(c3ncccn3)C2)CC1,-22%
CCOc1ccccc1NC(=O)CCCCCN1C(=O)[C@@H]2Cc3ccccc3CN2C1=O,8%
COc1cccc(OCc2cc(C(=O)N(Cc3ccccc3)CC3CC3)no2)c1,2%
CN1C(=O)/C(=C/c2ccccc2Cl)Sc2ccc(C(=O)NCc3cccnc3)cc21,13%
O=C(c1cc(C(=O)c2ccco2)cc(C(=O)c2ccco2)c1)c1ccco1,-5%
CCOC(=O)c1c(NC(=O)CC2SC(N)=NC2=O)sc2c1CCC(C)C2 (stereo not drawn),10%
CCCCNC(=O)c1[nH]c(C)c(C(C)=O)c1C,-4%

Brought forward from above: 3 compounds, then new ones.
canonical_smiles,VDR inhibitor
O=C(c1cc(C(=O)c2ccco2)cc(C(=O)c2ccco2)c1)c1ccco1,-5%
CCOC(=O)c1c(NC(=O)CC2SC(N)=NC2=O)sc2c1CCC(C)C2 (stereo not drawn),10%
CCCCNC(=O)c1[nH]c(C)c(C(C)=O)c1C,-4%
O=C(N/N=C/c1cccnc1)c1cccc(NC(=O)c2ccc(Cl)cc2)c1,-14%
CCOc1ccc(C2CC(c3ccc(CC)cc3)Nc3nc(N)nn32)cc1 (stereo not drawn),-5%
CCOC(=O)Cn1c(=O)n(C2CCCCC2)c2nc(-c3ccc(CC)cc3)nc(C(N)=O)c21,-2%
CCOc1cc2c(cc1OCC)C(CC(=O)O)N(C(=O)Nc1ccccc1C(F)(F)F)CC2 (stereo not drawn),5%
CCCCN1C(=N)N([C@@H](C)CN2CCC[C@H]2CN2C(N)=NC[C@@H]2Cc2ccccc2)C[C@H]1Cc1ccccc1,-7%
CC(=O)Cn1c(=O)c2c(nc3n2CCCN3Cc2ccccc2)n(C)c1=O,-10%
O=C(CCc1nc2ccccc2c(=O)[nH]1)NC1CCN(Cc2ccccc2)CC1,-9%
CC1CCN(S(=O)(=O)c2ccc3c(c2)N(CC(=O)NC(C)C)C(=O)CS3)CC1,-5%
COc1ccc(S(=O)(=O)N2CCN(C(=O)N(C)C)C2C)cc1 (stereo not drawn),-9%
O=C(NC(=S)Nc1ncccn1)c1ccc(Cl)cc1Cl,-16%
Cc1ccc(C(C(=O)NCC2CCCO2)N(Cc2ccccc2F)C(=O)Cn2nnc(-c3cccs3)n2)cc1 (stereo not drawn),2%
COCOc1cc(OC)ccc1C(=O)/C=C/c1cccc(C(F)(F)F)c1,28µM*
Cc1ccc(NC(=O)CN(C)C(=O)COc2cccc3ccc(C)nc23)cc1,7%
Cc1cc(=O)n2nc(-c3ccc(C(F)(F)F)cc3)sc2n1,3%
O=[N+]([O-])c1ccccc1NC(=S)N/N=C/c1ccc(O)c(O)c1,?
Cc1cc(C)c(-c2c(O)c3cccc4c3n(c2=O)CCC4)c(C)c1,-6%
CC(C)Cc1nnc(NC(=O)CCC(=O)N2CCN(c3ccc(F)cc3)CC2)s1,4%
CN1CCC(NC(=S)NC2CC2)CC1,5%
NS(=O)(=O)c1ccc(CCNC(=O)C(=O)NCC2OCCN2S(=O)(=O)c2cccs2)cc1 (stereo not drawn),75%[activator]
CCOC(=O)c1c(NC(=O)CSc2nnc(C)s2)sc2c1CCC(C)C2 (stereo not drawn),7%
CSc1nc2[nH]c3c(c2c2ncnn12)CCCC3,-2%
O=C(Cn1ncn2cccc2c1=O)N1CCCCC1,2%
CC(=O)c1ccc(NC(=O)CSc2nc(N3CCOCC3)nc(N3CCOCC3)n2)cc1,-6%
CCOc1ccc(NC(=O)c2cc(-c3ccc(C)c(F)c3)on2)c([N+](=O)[O-])c1,12%
S=c1[nH]nc(-c2ccc(Cl)cc2)n1/N=C/C=C/c1ccco1,-7%

Filtered by structure: the entries above containing a thiophene ring, fused or not (six)
canonical_smiles,VDR inhibitor
Cc1sc2c(c1C)c(=O)n(-c1ccc(Cl)cc1)c(=O)n2CC(=O)c1ccccc1,-10%
CCCCSc1nc2sc3c(c2c(=O)n1-c1ccccc1)CCN(C)C3,3%
CCOC(=O)c1c(NC(=O)CC2SC(N)=NC2=O)sc2c1CCC(C)C2 (stereo not drawn),10%
Cc1ccc(C(C(=O)NCC2CCCO2)N(Cc2ccccc2F)C(=O)Cn2nnc(-c3cccs3)n2)cc1 (stereo not drawn),2%
NS(=O)(=O)c1ccc(CCNC(=O)C(=O)NCC2OCCN2S(=O)(=O)c2cccs2)cc1 (stereo not drawn),75%[activator]
CCOC(=O)c1c(NC(=O)CSc2nnc(C)s2)sc2c1CCC(C)C2 (stereo not drawn),7%

Further records.
canonical_smiles,VDR inhibitor
Oc1ccc(C23CCCC2C2(CCCC2)c2ccc(O)cc2O3)c(O)c1 (stereo not drawn),-2%
CC1(C(=O)OCC(=O)Nc2cc(S(=O)(=O)N3CCOCC3)ccc2Cl)CC1(Cl)Cl (stereo not drawn),0%
O=C(N/N=C/c1cc(O)ccc1Br)c1cccnc1,-4%
CCOCCCNC(=O)CCC(=O)NNc1nc2ccccc2c2nc(-c3ccccc3)nn12,10%&6%
CCOCCCNC(=O)c1cc2c(-c3ccc(Cl)cc3)nn(C)c2s1,9%
COc1ccc(-n2c(=O)c(-c3ccc(F)cc3)nc3cnc(N4CCOCC4)nc32)cc1,-23%
O=C(NCc1cccnc1)c1ccc2c(=O)n(CCCN3CCCC3=O)c(=S)[nH]c2c1,-3%
CC1CCCCC1NC(=O)COC(=O)CN1C(=O)c2ccccc2C1=O (stereo not drawn),-10%
CCn1c(=O)c(=O)n(CC)c2cc(N3CCCCC3)c(NC(=O)c3ccccc3OC)cc21,6%
COc1cccc(CC(=O)OCC(=O)NCCc2ccc(F)cc2)c1,-8%
Cc1ccc(NC(=S)NNC(=O)c2ccc(N3CCOCC3)c([N+](=O)[O-])c2)cc1Cl,-8%
CC(=O)c1oc2ccccc2c1N,7%
COc1ccc(OCc2nc3ccccc3n2Cc2ccc(C(C)(C)C)cc2)cc1,-2%
COc1ccc(CNC(=O)CC(C)c2ccccc2)cc1 (stereo not drawn),4%
NC(=O)c1ccc(NC(=O)C2CC2)cc1,-16%
CC(Sc1ccc(Cl)cc1)C(=O)Nc1ccc2c(c1)OCO2 (stereo not drawn),-4%
CCNc1c(NS(=O)(=O)c2ccc(F)c(Cl)c2)c(=O)oc2ccccc12,-2%
CCN1CCN(C(=S)NC(CC(=O)c2ccccc2)c2ccccc2)CC1 (stereo not drawn),-8%
CCOC(=O)C1=C(C)N=c2s/c(=C\c3ccc(OC(C)=O)cc3)c(=O)n2C1/C=C/c1ccccc1 (stereo not drawn),-15%
O=C(O)CCc1ccc(S(=O)(=O)Nc2cc(C(F)(F)F)ccc2N2CCCC2)cc1,-27%
O=C(Nc1ccc(-n2cnnn2)cc1)C1CCCN1C(=O)Nc1ccc(Br)cc1 (stereo not drawn),16%
COc1cc(/C=N/Nc2snc(SC)c2C#N)ccc1O,1%
COc1ccc(OC)c(NC(=O)CSc2nc3scc(C)c3c(=O)[nH]2)c1,5%
COCCCNC(=O)c1ccc2c(=O)n(CC3CCCO3)c(=S)[nH]c2c1 (stereo not drawn),-2%
CN(CC(=O)Nc1c(Cl)cccc1Cl)C(=O)CCNS(=O)(=O)c1ccccc1C(F)(F)F,-7%

Next part.
Structure	VDR inhibitor
COc1ccc(Cl)cc1NC(=O)CN1CCN(C(=O)N2CCOCC2)CC1	3%
Cc1ccc(N(CC(=O)NC(C)c2ccccc2)S(=O)(=O)c2c(C)n[nH]c2C)cc1 (stereo not drawn)	-21%
COc1ccc(NS(=O)(=O)c2ccc(/C=C/C(=O)O)cc2)cc1S(=O)(=O)N1CCOCC1	16%
CCOc1ccc(NS(=O)(=O)c2ccc(C(=O)NCCCN3CCOCC3)cc2)cc1	3%
Cc1oc(-c2ccc(Cl)cc2)nc1CN1CCCC(C(=O)NCCc2ccc(Cl)cc2)C1 (stereo not drawn)	-23%
O=C(NC(Cc1ccccc1)C(=O)O)/C(=C\c1ccc([N+](=O)[O-])cc1)NC(=O)c1ccco1 (stereo not drawn)	-12%
COc1cc(CN(C(=S)NCC(=O)N2CCCC2)C2CCCC2)cc(OC)c1OC	24%
CC(C)CN(CCCNC(=O)c1cc(=O)[nH]c2ccc(S(=O)(=O)N3CCCCCC3)cc12)CC(C)C	11%
COc1ccc(Nc2nnc(-c3cc4c(ccc5ccccc54)oc3=O)s2)cc1	-19%
CCc1ccc(NC(=O)CSC2=Nc3ccccc3C3=NC(CCC(=O)NCc4ccccc4)C(=O)N23)cc1 (stereo not drawn)	1%
CN(C)S(=O)(=O)c1ccc(Cl)c(NC(=O)COC(=O)[C@@H]2CCCN2C(=O)c2cccs2)c1	-23%
CCOC(=O)c1cc2cc(CC(=O)c3ccc(OCC)cc3O)ccc2o1	5%
Cc1cc(=O)n2nc(N3CCCC3C(=O)Nc3cccc(Cl)c3C)sc2n1 (stereo not drawn)	-3%
O=C(COc1ccccc1[N+](=O)[O-])c1ccccc1	-14%
C#CCNC(=O)C1=C[C@H](c2ccc(C#C)cc2)C[C@H](OCc2ccc(CO)cc2)O1	-6%
Cc1nn(-c2ccccc2)c2c1N(CCCC(=O)NC(C)c1ccccc1)C(=O)CS2 (stereo not drawn)	19%
CC(=O)c1cnc2n(c1=O)CCS2	-20%
CCN(CC)S(=O)(=O)c1ccc2c(c1)N(CC(=O)N1CCN(c3cccc(C)c3C)CC1)C(=O)CO2	13%
CCc1ccc(NC(=O)C(=O)c2cn(CC(=O)N3CCCCC3)c3ccccc23)cc1	-13%
CC(OC(=O)COc1ccc(Nc2ccccc2)cc1)C(=O)N(C)c1ccccc1 (stereo not drawn)	-8%
COc1ccc(S(=O)(=O)N2CCOCC2)cc1NC(=O)COc1ccccc1OC	-13%
COc1ccc(-c2noc(-c3ccc(N4CCOCC4)c([N+](=O)[O-])c3)n2)cc1OC	6%
CC(=O)NS(=O)(=O)c1ccc(NC(=O)c2cc(-c3ccc(C)cc3)nc3ccccc23)cc1	-7%
O=C(CN1C(=O)NC2(CCCC2)C1=O)OCCOc1ccc(F)cc1	-18%
COC(=O)CSc1nnc(-c2cccnc2)n1-c1cc(OC)cc(OC)c1	3%
O=C(NCCCO)c1nnc(Cc2c(F)cccc2Cl)o1	16%
O=C(CSc1nccn1-c1ccc(Cl)cc1)Nc1ccc2c(c1)OCO2	-2%
CN1C(=O)/C(=C/c2ccc(OCc3ccc(F)cc3)cc2)NC1=S	-5%
Cn1c(CNC(=O)c2ccc(Cl)cc2)nnc1SCC(=O)NC1=NCCS1	-1%
CCOC(=O)C1CCN(C(=O)CSc2nccc(C)n2)CC1	18%
CC(=O)Nc1nonc1-c1nc2ccccc2n1Cc1ccccn1	12%
Cn1c(=O)c(=O)n(C)c2cc(N3CCCC3)c(NC(=O)c3ccccc3Cl)cc21	-1%
Cc1ccc2nc(SCC(=O)NCc3cccs3)[nH]c2c1	-4%
O=C(CCl)N1N=C(c2ccco2)CC1c1cccs1 (stereo not drawn)	-20%
COc1ccc(-c2cc(=O)oc3cc(OCC(=O)Nc4ccccn4)ccc23)cc1	?
c1ccc(-c2ccc3c(n2)CCCO3)cc1	-7%
Cc1oc(-c2cc(F)cc(F)c2)nc1CN1CCN(C(=O)c2ccco2)CC1	-10%
CC(C)NC(=O)c1ccccc1NC(=O)Cc1ccc(Br)cc1	22%
C=C(C)Cc1c(C)c(C#N)c2nc3ccccc3n2c1N1CCCCC1	6%
Cc1ccc[n+](CC(=O)Nc2c(Cl)cc(Cl)cc2Cl)c1	-10%
O=C(COC(=O)c1n[nH]c2ccccc12)NC(=O)NC1CCCCC1	9%
Clc1cc(Cl)cc(Nc2ncn[nH]2)c1	6%
O=C(CCNC(=O)c1ccco1)Nc1ccc(Cl)cc1	-15%
